CtBP-E1A inh = inhibitors of CtBP/E1A interaction | AlphaScreen GST-E1A/His-CtBP binding, 1536-well; stronger effect = lower value; control for the full effect not named in the record | activity change, % (test concentration not listed) | actives 0.49% (n = 340,000); in the data active means activity change below about -65%; inconclusive means about -30% to -65%; inactive means above about -30%; also: % is scaled to controls: 0 for no effect and ±100 for the full control effect; compound concentration not given in the record
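Protein mix (5X: 125 nM each GST-E1A, His-CtBP) was incubated with pinned compound 2 h at 37 deg C in dark, in 50 mM Tris pH 8.0 buffer with 300 mM NaCl. Glutathione donor and nickel acceptor beads followed; AlphaScreen signal read after 1 h.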
TRPML1 agonist = human mucolipin-1 channel agonism. TRPML1-expressing cells, Ca2+ dye fluorescence, FDSS; host cell line not named in the record; reference of the full effect not given here. activation, % (no concentration beside the values). actives 0.12% (n = 410,000); in the data active = activation above about 50%; inconclusive = about 30% to 50%; inactive = below about 30%; also: 0% is about no effect; the text of the record puts the active cut at 80%
Target sequence (Q9GZU1 whole entry, looked up): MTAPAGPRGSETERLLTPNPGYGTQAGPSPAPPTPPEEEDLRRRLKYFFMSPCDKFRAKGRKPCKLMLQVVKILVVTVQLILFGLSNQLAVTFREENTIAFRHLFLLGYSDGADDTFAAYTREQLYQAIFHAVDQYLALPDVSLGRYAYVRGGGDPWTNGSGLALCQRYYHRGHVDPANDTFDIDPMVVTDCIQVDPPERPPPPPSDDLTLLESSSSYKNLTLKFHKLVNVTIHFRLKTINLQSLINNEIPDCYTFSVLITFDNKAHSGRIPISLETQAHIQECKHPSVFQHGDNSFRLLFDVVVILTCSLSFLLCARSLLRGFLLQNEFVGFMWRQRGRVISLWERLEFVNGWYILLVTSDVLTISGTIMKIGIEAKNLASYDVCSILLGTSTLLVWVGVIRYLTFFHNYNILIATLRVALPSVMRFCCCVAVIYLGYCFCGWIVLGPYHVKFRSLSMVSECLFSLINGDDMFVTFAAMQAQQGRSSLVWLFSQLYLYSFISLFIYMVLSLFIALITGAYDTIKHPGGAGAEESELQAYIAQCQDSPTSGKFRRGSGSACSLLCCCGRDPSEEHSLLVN
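Agonist activity was taken from a 110 s kinetic Ca2+ dye read on the FDSS after pinning compounds onto TRPML1-DL cells. The cells were seeded at 1,500/well with Tet inducer, incubated about 16 h, then dye-loaded at room temperature.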
D2 agonist = activates the human D2 dopamine receptor | P14416 | activation, % (test concentration not listed) | DiscoveRx PathHunter D2 beta-arrestin, luminescence, 90 min; 100% = 57 uM dopamine signal | actives 0.084% (n = 360,000); in the data active = activation above about 40%; inconclusive = about 15% to 40%; inactive = below about 15%; also: compound concentration not given in the record; the text of the record calls up to 30% inactive
Target sequence (P14416 whole entry, looked up): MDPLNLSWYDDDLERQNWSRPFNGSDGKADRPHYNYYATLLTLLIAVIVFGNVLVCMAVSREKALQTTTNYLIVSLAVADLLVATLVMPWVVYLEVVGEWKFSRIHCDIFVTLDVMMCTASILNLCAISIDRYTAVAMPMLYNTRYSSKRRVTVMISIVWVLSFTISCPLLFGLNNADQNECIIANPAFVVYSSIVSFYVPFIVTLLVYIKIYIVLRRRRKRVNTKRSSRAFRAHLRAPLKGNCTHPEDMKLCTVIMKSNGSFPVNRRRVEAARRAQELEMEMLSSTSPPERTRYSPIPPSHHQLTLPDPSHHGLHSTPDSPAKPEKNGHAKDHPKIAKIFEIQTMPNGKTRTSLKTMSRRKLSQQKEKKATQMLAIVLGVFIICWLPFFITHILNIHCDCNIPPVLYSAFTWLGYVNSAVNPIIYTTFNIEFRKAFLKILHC
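Agonist mode: compounds alone added to overnight-plated D2 PathHunter cells for 90 min at 37 C, with 57 uM final dopamine (EC100) defining full response. Beta-arrestin recruitment detected by chemiluminescent reagent, read after 1 h at ambient temperature.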
Six1-Eya2 blk = inhibitors of human Six1/Eya2 interaction; Q15475+O00167; AlphaScreen GST-Six1/His-Eya2 binding, biochemical; stronger effect = lower value; control for the full effect not named in the record; activity change, % (concentration not given with the values); actives 0.56% (n = 360,000); AID 651725; in the data active = activity change below about -65%; inconclusive = about -30% to -65%; inactive = above about -30%; also: % is scaled to controls: 0 for no effect and ±100 for the full control effect
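GST-Six1 + His-Eya2 (5X stock: 250/500 nM); Tris pH 8.0, 300 mM NaCl, 0.05% BSA, 0.02% Tween 20; GSH donor/Ni acceptor beads; 1 h 37 °C dark; AlphaScreen readout.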
PINK1 modulator = changes PINK1 expression. PINK1 immunofluorescence, high-content cytometry, 24 h. Potency, µM (series often up to 76.6 µM), without a hit: at the top dose activation (PINK1 increase), most hits filed as activators. actives 0.2% (n = 410,000); active = well fitted activation curve with a large enough effect; inconclusive = small, poorly fitted or top-dose-only effect; inactive = flat fitted curve, though single readings scatter; cell line not stated here;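 also: potency is read from the fitted curve at half-maximal effect; % of control where 0% means no effect; nearly all actives have a fitted effect of over 65% in size; a mitochondrial uncoupler was the plate control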
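Stable cell line treated 24 h with compounds at 5 concentrations (CCCP controls), then fixed and immunostained for PINK1 plus nuclear and cell stains; PINK1 immunofluorescence quantified by laser-scanning microplate cytometry.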
D2 PAM = human D2 receptor positive allosteric modulation. P14416. actives 0.23% (n = 360,000). DiscoveRx D2 beta-arrestin cells, luminescence, 90 min; 100% = 57 uM dopamine signal. potentiation, % (test concentration not listed); active = potentiation of 50% or more; inconclusive = 30% to 50%; inactive = 30% or less;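 also: compound concentration not given in the record; tested on top of an EC20 dose of dopamine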
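PathHunter D2 cells, attached overnight at 37 deg C, received compound in DMSO plus dopamine at EC20 (50 nM final) for 90 min at 37 deg C. Beta-arrestin recruitment was read as luminescence after 1 h with detection reagent at ambient temperature.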
An asterisk follows results filed as active; ? = inconclusive; . = not tested or not shown; & = joins results of further samples.

SMILES | CtBP-E1A inh | TRPML1 agonist | D2 agonist | Six1-Eya2 blk | PINK1 modulator | D2 PAM
O=S(=O)(c1ccc(OCC(O)CN2CCC(Cc3ccccc3)CC2)cc1)N1CCOCC1 (stereo not drawn) | -5 | 1.3 | 6.5 | -1 | . | -16
CC(C)(C)NC(=O)COc1ccccc1C#N | 0 | 0.2 | 2.8 | 0 | 1.1% | 2
O=C1C(Cl)=C(Oc2ccccc2)C(=O)c2ccccc21 | -11 | 0.7 | 7.0 | -1 | 10% | -22
Cc1cc(C)cc(OC(C)C(=O)Nc2ccc(S(=O)(=O)Nc3cc(C)nc(C)n3)cc2)c1 (stereo not drawn) | -10 | 0.2 | -2.9 | -4 | 2.9% | -2
c1ccc(CNC2=NCCC2)nc1 | -16 | 0.7 | -0.5 | -14 | 1.5% | -2
COc1ccccc1N1CCN(S(=O)(=O)c2ccc(Cl)cc2)CC1 | 6 | 0.7 | 4.3 | 2 | -0.4% | -11
CC1CCN(CC(O)COCCOc2ccc(Br)cc2)CC1 (stereo not drawn) | -2 | -0.4 | -3.8 | 4 | 1.8% | -20
COc1cc(C(=O)Nc2ccc(C)cn2)ccc1OCC(=O)N1CCOCC1 | -1 | 0.1 | -0.9 | 3 | -2.0% | -4
Cn1c(=O)c2c(SCC(=O)N3CCN(c4ccccc4)CC3)nc(C3CC3)nc2n(C)c1=O | 5 | -0.1 | -5.9 | 5 | 0.8% | -4
O=C(NNC(=O)c1ccc2nc[nH]c2c1)c1ccccc1 | . | -0.7 | 5.9 | -6 | 1.6% | -1
CCCN1CCN(C(=O)CCn2c(=O)c3cccn3c3cccnc32)CC1 | -13 | 0.3 | -1.8 | 6 | -1.8% | -24
CC(C)C(=O)Nc1cccc(NC(=O)c2ccc([N+](=O)[O-])cc2Cl)c1 | 11 | 0.0 | -0.1 | 4 | 1.5% | -2
O=C(COc1ccc(Br)cc1Br)NC(=S)Nc1cccc(CO)c1 | -15 | 0.0 | -0.5 | -4 | 1.0% | 3
CCN(CC(=O)Nc1ccccc1OC)C(=O)CSCc1ccc(C)cc1 | 13 | 0.3 | -1.4 | -1 | 0.6% | -5
Cc1ccc(NC(=O)c2ccc(S(=O)(=O)N3CCC(C)CC3)cc2)nc1 | 11 | -0.4 | -2.7 | 2 | 10% | 1
CC(=O)N1CCCc2cc(S(=O)(=O)N3CCCC(C(=O)NCc4ccccc4Cl)C3)ccc21 (stereo not drawn) | 3 | 0.0&0.7 | 1.1 | 3 | 0.0%&-0.4% | -15
CC(C)[C@H]1CN=C2N(C[C@H](C)NC(=O)CCC3CCCCC3)[C@H](Cc3ccc(O)cc3)CN21 | 2 | -0.1 | 1.1 | 5 | -0.3% | -24
Cc1ccc(C2=[N+]([O-])C3(CCCCC/C3=N\O)N(O)C2(C)C)o1 (stereo not drawn) | -2 | 0.7 | 8.4 | 14 | -0.1% | ?
C=CCN(CC=C)S(=O)(=O)c1ccc2nc(NC(=O)C(C)C)sc2c1 | -3 | 0.3 | -3.2 | -6 | 6.8% | 1
Cc1cc2nc(C(C)(C)C)c(Cc3ccsc3)n2c(C)c1Br | 1 | 9.1 | . | -2 | ? | .
O=C(CCS(=O)(=O)c1cccc2nonc12)NCc1ccc(Cl)cc1 | 5 | -0.3 | -1.3 | -3 | -2.7% | -10
CN(CC(=O)Nc1ccc(F)cc1[N+](=O)[O-])C1CCS(=O)(=O)C1 (stereo not drawn) | 6 | -0.7 | 11 | 0 | -0.7% | 2
COc1ccc(N2CCN(Cc3nnc(-c4ccccc4)o3)CC2)cc1 | 0 | 1.0 | 0.2 | -13 | -0.3% | -2
Cc1ccc(S(=O)(=O)NC(=O)C2(C)CCN2C(=O)Cc2ccc(C(C)(C)C)cc2)nc1 (stereo not drawn) | 3 | -0.2 | -1.6 | -1 | -0.4% | -2
O=C(O)C(=Cc1cc2c(cc1[N+](=O)[O-])OCO2)c1cc2c(cc1Br)OCO2 | -19 | 1.7 | -2.2 | -3 | -1.7% | -7

Further structures.
SMILES | CtBP-E1A inh | TRPML1 agonist | D2 agonist | Six1-Eya2 blk | PINK1 modulator | D2 PAM
O=C(Nc1cccc(C(=O)O)c1)/C(=C\c1ccc2c(c1)OCO2)NC(=O)c1ccccc1 | -1 | 0.0 | -1.8 | -10 | -0.4% | -7
Cc1cc(C(=O)NC2=NCCS2)c2ccccc2n1 | 8 | 1.9 | 1.9 | -3 | 1.2% | -7
COC(=O)c1ccc(C2NC(=O)CCC2[N+](=O)[O-])cc1 (stereo not drawn) | -14 | 0.8 | -1.9 | -7 | -0.1% | -3
CC(C)(C)C1=CC(O)(c2ccccc2)C=C(C(C)(C)C)C1=O | 6 | . | -1.4 | 2 | -1.3% | 9
Cn1nnnc1SCC(=O)NC(C)(C)C | 5 | -1.2 | -1.6 | 0 | -1.6% | 2
O=C(NNC(=S)NCc1ccccc1)c1ccc(OC(F)F)cc1 | 8 | 0.0 | -0.6 | 0 | 1.8% | -17
COCCOC(=O)c1[nH]c2c(c1C)C(=O)CC(c1cc(OC)ccc1OC)C2 (stereo not drawn) | 5 | 0.7 | -4.0 | 0 | 15% | -3
COCCN1CC(O)=C(c2nc3ccccc3c(=O)[nH]2)C1=N | 0 | 1.4 | -0.8 | 16 | -0.4% | -1
COc1ccccc1CNc1nc2cc(-c3ccc(OC)c(OC)c3)sc2c(=O)n1C | -6 | -0.9 | 3.7 | -5 | 1.1% | 29
COCCN1C(=O)c2oc3ccccc3c(=O)c2C1c1cccc(O)c1 (stereo not drawn) | 5 | 0.4 | 5.0 | 1 | 1.3% | 2
CCOC(=O)C1=C[C@@H](c2ccccc2)N(S(=O)(=O)c2ccc(C)cc2)[C@H]1c1ccc(F)cc1 | -11 | 2.8 | -2.7 | 8 | 2.3% | -5
COc1cccc(/C=N/Nc2ncc(C(F)(F)F)cc2Cl)c1O | -98* | -0.6 | -0.3 | -92* | 3.2% | -11
CCCCN(C(=O)c1cccc(S(=O)(=O)N2CCN(C)CC2)c1)c1c(N)n(CCC)c(=O)[nH]c1=O | 1 | -1.1 | -3.9 | 1 | 4.9% | 6
O=C(Oc1coc(CSc2nnc(NC(=O)c3cccs3)s2)cc1=O)c1ccccc1 | -8 | 1.0 | -3.6 | ? | 1.8% | -24
COc1ccc(S(=O)(=O)N2CCN3CCCC3C2)cc1 (stereo not drawn) | 5 | 5.3 | -1.0 | 2 | 0.6% | -6
CCN(CC)S(=O)(=O)c1ccc(C(=O)Nc2cc(C)on2)cc1 | 11 | -1.0 | -2.4 | -7 | -0.5% | -5
O=C(Nc1ccc2c(c1)OCO2)N1CCCc2ccccc21 | -7 | 0.1 | 0.1 | -4 | 0.9% | -4
Cc1cc(N2CCCC2)ccc1NC(=O)COc1ccccc1 | -7 | 1.9 | -3.0 | -5 | 4.8% | -1
C=CCNc1nc(C(=O)OC(C)C(=O)c2ccc(C)cc2)cs1 (stereo not drawn) | . | -0.3 | 0.6 | 0 | 0.1% | -3
Cc1ccccc1C(=O)c1cccn1CC(=O)NCc1cccc(Cl)c1 | 0 | -1.1&1.8 | 1.2 | -2 | 0.6%&0.4% | 0
COCCOC(=O)c1c(NC(=O)CSc2cccc[n+]2[O-])sc(C(N)=O)c1C | -20 | -0.3 | -4.6 | 11 | -1.1% | -3
CCCn1c(SCC(=O)N2CCN(c3ccccc3)CC2)nc2ccccc2c1=O | -8 | 3.6 | 1.4 | -3 | -2.1% | -1
COc1cccc(N=Nc2ccc3cccnc3c2O)c1 | . | 3.8 | -4.7 | -91* | 3.4% | 1
CSCCC(=O)N(C)CC1CCCN(CCc2cccc(C(F)(F)F)c2)C1 (stereo not drawn) | . | -0.6 | -3.3 | 1 | -1.6% | -56
CC(C)(C)c1ccccc1NC(=O)CN1C(=O)NC2(CCCCCC2)C1=O | 9 | 0.5 | 0.4 | 6 | -1.6% | -6

3 compounds from above, arranged by SMILES length, rising:
SMILES | CtBP-E1A inh | TRPML1 agonist | D2 agonist | Six1-Eya2 blk | PINK1 modulator | D2 PAM
COCCN1CC(O)=C(c2nc3ccccc3c(=O)[nH]2)C1=N | 0 | 1.4 | -0.8 | 16 | -0.4% | -1
COCCOC(=O)c1[nH]c2c(c1C)C(=O)CC(c1cc(OC)ccc1OC)C2 (stereo not drawn) | 5 | 0.7 | -4.0 | 0 | 15% | -3
CCOC(=O)C1=C[C@@H](c2ccccc2)N(S(=O)(=O)c2ccc(C)cc2)[C@H]1c1ccc(F)cc1 | -11 | 2.8 | -2.7 | 8 | 2.3% | -5

New compounds follow
SMILES | CtBP-E1A inh | TRPML1 agonist | D2 agonist | Six1-Eya2 blk | PINK1 modulator | D2 PAM
O=C(CN1C(=O)C(=O)N(Cc2ccccc2)C1=O)Nc1ccc(OC(F)F)cc1 | -3 | 0.7 | 2.7 | 4 | 2.0% | -3
Cn1cccc1Cc1nnc(SCC(=O)Nc2cccc(F)c2)n1CCc1ccccc1 | -9 | 0.3 | 1.7 | -19 | 1.3% | -1
COc1ccc(C(=O)N2CCCC(C)(C(=O)NS(=O)(=O)C3CC3)C2)c(OC)c1 (stereo not drawn) | 0 | -0.3 | -3.3 | 4 | 0.6% | -4
COc1ccc(OC)c(C2NC(=O)NC(C)=C2C(=O)Nc2ccc(C)cc2C)c1 (stereo not drawn) | -1 | 0.5 | -1.6 | 2 | -0.3% | -1
Cc1ccc(NC(=O)Cn2c(=O)oc3ccccc32)cc1Cl | -3 | -0.6&2.3 | -1.2 | 8 | 6.4%&0.9% | -3
COc1ccc(OC)c(C(=O)CCCC(=O)c2cc(OC)ccc2OC)c1 | -6 | . | -4.8 | -9 | -0.3% | -4
O=C(COC(=O)c1cc(S(=O)(=O)N2CCOCC2)ccc1F)Nc1ccc2c(c1)OCO2 | 0 | 0.3 | -2.3 | 1 | 1.1% | 0
COc1cccc(-c2ccc(SCC(=O)N3CCOCC3)nn2)c1 | 3 | -0.5 | 3.9 | -2 | -0.7% | 10
O=C(Nc1ccc(Cl)c(Cl)c1)c1ccccc1 | 6 | 0.1 | -0.1 | 13 | 7.1% | -12
COc1ccc(NC(=O)COC(=O)CNC(=O)c2cc(OC)c(OC)c(OC)c2)cc1 | -1 | -0.8 | -4.5 | -4 | 0.5% | -4
Clc1cccc(CN2CCSCC2)c1 | . | -0.6 | 0.4 | 0 | -0.7% | -26
CCC(CC)C(=O)N(C)c1c(C)nc2c(OCc3ccc(C(F)(F)F)cc3)cccn12 | 1 | -0.4 | -3.6 | 2 | 14% | 2
COc1ccc(OCc2cc(C(=O)N(C)C3CCOCC3)no2)c2ccccc12 | . | -1.0 | ? | -24 | 1.2% | 2
CCOC(=O)c1[nH]c(=S)n(Cc2ccccc2)c1C(=O)OCC | -12 | -0.1 | -1.8 | 4 | 2.4% | -10
CC(=NNC(=S)Nc1cccc(Cl)c1)c1ccccn1 | -96* | 1.6 | 1.4 | -91* | -0.9% | 9

3 entries from above, with tabs:
structure	CtBP-E1A inh	TRPML1 agonist	D2 agonist	Six1-Eya2 blk	PINK1 modulator	D2 PAM
O=C(CN1C(=O)C(=O)N(Cc2ccccc2)C1=O)Nc1ccc(OC(F)F)cc1	-3	0.7	2.7	4	2.0%	-3
O=C(COC(=O)c1cc(S(=O)(=O)N2CCOCC2)ccc1F)Nc1ccc2c(c1)OCO2	0	0.3	-2.3	1	1.1%	0
Cn1cccc1Cc1nnc(SCC(=O)Nc2cccc(F)c2)n1CCc1ccccc1	-9	0.3	1.7	-19	1.3%	-1
